GIRK2 act = activators of human GIRK2 potassium channels; G protein-activated inward rectifier potassium channel 2 (Homo sapiens), P48051; hit rate 0.05% among 63,000; HEK293-GIRK2 thallium flux, Thallos fluorescence; calls only for hits at 25 µM;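 active = among the strongest 0.2% of first-round signals and kept after retests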;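 also: first round at about 10 µM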
Target sequence (P48051 whole entry, looked up): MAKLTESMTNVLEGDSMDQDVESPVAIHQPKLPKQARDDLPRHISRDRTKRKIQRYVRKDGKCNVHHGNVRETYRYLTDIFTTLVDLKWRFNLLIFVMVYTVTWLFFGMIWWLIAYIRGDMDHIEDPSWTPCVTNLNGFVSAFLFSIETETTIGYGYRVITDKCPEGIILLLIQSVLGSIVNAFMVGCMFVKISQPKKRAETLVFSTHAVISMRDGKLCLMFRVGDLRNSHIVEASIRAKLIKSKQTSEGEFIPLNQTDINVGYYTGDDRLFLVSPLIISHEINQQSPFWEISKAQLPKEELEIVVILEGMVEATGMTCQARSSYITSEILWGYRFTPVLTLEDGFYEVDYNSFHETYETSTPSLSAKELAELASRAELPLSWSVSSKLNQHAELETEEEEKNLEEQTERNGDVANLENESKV
Calls only; i = inactive.

SMILES | GIRK2 act
CCN(CC)CCN1C(=O)C(=O)C(=C(O)c2ccncc2)C1c1cc(OC)ccc1OC (configuration not stated) | i
Cc1ccc(-c2ccc(N3CCN(C(=O)c4ccc(N(C)C)cc4)CC3)nn2)cc1C | i
Cn1cccc(-c2nc3ccccc3n2Cc2ccccc2F)c1=O | i
CCOC(=O)c1[nH]c(C)c(C(=O)N(CC)C2CCCCC2)c1C | i
NC(=S)c1ccsc1NC(=O)c1ccc([N+](=O)[O-])cc1 | i
CC(C)(C)c1ccc(S(=O)(=O)NCC(=O)N2CCN(C(=O)c3ccco3)CC2)cc1 | i
COc1cc(OC)cc(C(=O)Nc2nnc(-c3ccc(C)cc3C)o2)c1 | i
CCc1ccccc1NC(=O)C(C)Oc1ccc(OC)cc1 (configuration not stated) | i
COC(=O)c1ccccc1C(=O)N1CCN(c2ncnc3c2nnn3-c2ccccc2)CC1 | i
CCOc1ccc(N(C)S(=O)(=O)c2ccsc2C(=O)NCc2ccccc2)cc1 | i
Cc1cc(N2C(=O)C(O)=C(C(=O)c3ccco3)C2c2cccc(Cl)c2)no1 (configuration not stated) | i
C/C=C/Cn1c(=O)c2c(nc3n(CCOC)c(C)cn23)n(C)c1=O | i
CC1=C(C(=O)OCc2ccccc2)C(c2ccc(O)cc2)NC(=S)N1 (configuration not stated) | i
O=C(Nc1ccc(-n2nnn(CC(=O)N3CCOCC3)c2=O)cc1)c1c[nH]c2ccccc12 | i
CN(C)C(CNS(=O)(=O)c1cccc(C(F)(F)F)c1)c1cn(C)c2ccccc12 (configuration not stated) | i
COc1nn(C)cc1C(=O)Nc1nnc(SCC(=O)NC(C)(C)C)s1 | i
Cc1cc(NC(=O)c2ccc(F)cc2)n(-c2nc3ccc(F)cc3s2)n1 | i
Cc1nc(-c2cccc(NC(=O)c3cc4n(n3)CCCO4)c2)cs1 | i
Cc1ccc(C2(C)NC(=O)NC2=O)cc1 (configuration not stated) | i
C=Cc1ccc(CN(c2cccc(Cl)c2)S(=O)(=O)c2cccn3c(C)nnc23)cc1 | i
C[C@]1(O)CC[C@@H]2C(C(=O)O)=CO[C@@H](O[C@@H]3O[C@H](COC(=O)/C=C/c4ccc(O)c(O)c4)[C@@H](O)[C@H](O)[C@H]3O)[C@@H]21 | i
COc1ccc(Cn2nc3c(S(=O)(=O)N4CCCCC4)cccn3c2=O)cc1 | i
O=C(Cc1cccs1)NC1CCN(C(=O)c2cn(-c3cccc(F)c3)nn2)CC1 | i
O=C(Cn1nc2c(Sc3ccccc3)nccn2c1=O)Nc1ccc2c(c1)OCO2 | i
Cc1ccc(Cn2cc(-c3nc(-c4ccc(Cl)cc4)no3)ccc2=O)cc1 | i
Cc1nc(-c2noc(-c3ccncc3)n2)cn1CC(=O)N1CCN(c2ccccc2)CC1 | i
CCOc1ccc2ccccc2c1C(=O)N1CCC(Oc2cnccn2)CC1 | i
C[C@@]12C[C@]3(O)O[C@H](O1)C1(COC(=O)c4ccccc4)[C@H]3C[C@@]12O[C@@H]1O[C@H](COC(=O)c2ccccc2)[C@@H](O)[C@H](O)[C@H]1O | i
CCOC(=O)c1cnn2ccc(NC(=O)c3cc(-c4ccco4)on3)cc12 | i
CCCCCCCCCCCCC/C=C/[C@@H](O)[C@H](CO)NC(C)=O | i
O=C(c1csc(-c2cc3ccccc3[nH]2)n1)N1CCCCC1c1cccnc1 (configuration not stated) | i
COC(=O)Cn1c(=O)c2c(nc3n(-c4ccc(C)c(Cl)c4)c(C)cn23)n(C)c1=O | i
COc1ccc(S(=O)(=O)Nc2nc3ccccc3nc2Nc2cccc(C(C)=O)c2)cc1 | i
CCOC(=O)N1CCN(C(=O)CN2CC(c3nc(C)no3)C2)CC1 | i
O=C(NC(C(=O)N1CCN(C(=O)c2cccs2)CC1)S(=O)(=O)c1ccccc1)c1ccco1 (configuration not stated) | i
CCSc1nnc(NC(=O)CN2CC(c3nc(Cc4ccccc4)no3)C2)s1 | i
O=C(CCc1csc2nc(C3CC3)cn12)NCCC1=CCCCC1 | i
CN(Cc1ccccc1)c1nc2c(c(=O)[nH]c(=O)n2C)n1CCCOc1ccccc1 | i
CCN(CC)CCN1C(=O)c2oc3cc(OC)ccc3c(=O)c2C1c1cccc(F)c1 (configuration not stated) | i
C1CN(c2nc(NC3CC3)nc3n[nH]nc23)CCO1 | i
Cc1cn2c3c(=O)n(C)c(=O)n(C)c3nc2n1CCN1CCN(C(=O)c2ccco2)CC1 | i
O=C(NCc1cccc2ccccc12)N1CCN(CC(F)(F)F)CC1 | i
CC(C)N(CC#CCNC(=O)c1cccc(Cl)c1)C(C)C | i
Cc1ccc(-c2ccc(N3CCN(S(=O)(=O)c4cccnc4)CC3)nn2)c(C)c1 | i
O=C(Nc1ccc(-n2cnnn2)cc1)C1(c2cccs2)CCCC1 | i
O=C(NCCn1cnc(-c2ccccc2)cc1=O)c1cccc(-n2cnnn2)c1 | i
COc1ccc(C)cc1S(=O)(=O)NCC1CCN(S(=O)(=O)c2cccnc2)CC1 | i
CCCCCn1c(=O)c2sccc2n2c(CCC(=O)N3CCN(c4ccccc4)CC3)nnc12 | i
COC1CC(=O)C23C(=O)NC(Cc4c[nH]c5ccccc45)C2C(C)C2(C)OC2C3/C=C/CC(C)CC1O (configuration not stated) | i
O=C(Nc1nc(-c2ccc(Cl)cc2)cs1)C1CCN(S(=O)(=O)c2ccc(F)cc2)CC1 | i
CS(=O)(=O)N1CCC(C(=O)Nc2cc(N3CCOCC3)ncn2)CC1 | i
COc1cccc(C(=O)Nc2oc3ccccc3c(=O)c2-c2ccc(OC)c(OC)c2)c1 | i
Cc1ccc(Cc2cnc(NC(=O)CNCc3ccco3)s2)cc1Cl | i
COc1cccc(NC(=O)N2CCN(c3ccc(-c4ccccc4C)nn3)CC2)c1 | i
COc1cccc(-c2cc(C(=O)N3CCN(c4cc(N5CCCCC5)ncn4)CC3)[nH]n2)c1 | i
COc1cccc(NC(=O)NCCCn2ncccc2=O)c1 | i
COc1cccc(OCC(=O)NCC(C)(O)CSC)c1 (configuration not stated) | i
O=C(NCCn1ncccc1=O)c1ccc(S(=O)(=O)N2CCOCC2)cc1 | i
COc1ccc(C(=O)N2CCN(c3oc(/C=C/c4cccs4)nc3C#N)CC2)cc1 | i
Cc1cc2ncn(CC3CCN(C(=O)c4ccsc4)CC3)c2cc1C | i

Another view of some results above:
GIRK2 act	smiles
i	C/C=C/Cn1c(=O)c2c(nc3n(CCOC)c(C)cn23)n(C)c1=O
i	CC1=C(C(=O)OCc2ccccc2)C(c2ccc(O)cc2)NC(=S)N1 (configuration not stated)
i	O=C(Nc1ccc(-n2nnn(CC(=O)N3CCOCC3)c2=O)cc1)c1c[nH]c2ccccc12
i	CN(C)C(CNS(=O)(=O)c1cccc(C(F)(F)F)c1)c1cn(C)c2ccccc12 (configuration not stated)
i	COc1nn(C)cc1C(=O)Nc1nnc(SCC(=O)NC(C)(C)C)s1
i	Cc1cc(NC(=O)c2ccc(F)cc2)n(-c2nc3ccc(F)cc3s2)n1
i	Cc1nc(-c2cccc(NC(=O)c3cc4n(n3)CCCO4)c2)cs1
i	Cc1ccc(C2(C)NC(=O)NC2=O)cc1 (configuration not stated)
i	C=Cc1ccc(CN(c2cccc(Cl)c2)S(=O)(=O)c2cccn3c(C)nnc23)cc1
i	C[C@]1(O)CC[C@@H]2C(C(=O)O)=CO[C@@H](O[C@@H]3O[C@H](COC(=O)/C=C/c4ccc(O)c(O)c4)[C@@H](O)[C@H](O)[C@H]3O)[C@@H]21
i	COc1ccc(Cn2nc3c(S(=O)(=O)N4CCCCC4)cccn3c2=O)cc1
i	O=C(Cc1cccs1)NC1CCN(C(=O)c2cn(-c3cccc(F)c3)nn2)CC1
i	O=C(Cn1nc2c(Sc3ccccc3)nccn2c1=O)Nc1ccc2c(c1)OCO2
i	Cc1ccc(Cn2cc(-c3nc(-c4ccc(Cl)cc4)no3)ccc2=O)cc1
i	Cc1nc(-c2noc(-c3ccncc3)n2)cn1CC(=O)N1CCN(c2ccccc2)CC1

Later entries.
SMILES | GIRK2 act
O=C(NCc1ccccc1)c1csc(C(=O)NC2CCCC2)n1 | i
COCCN1CCC(NC(=O)c2ccccc2C(F)(F)F)CC1 | i
O=C1NC(=O)c2cc(NC(=O)C3CCN(S(=O)(=O)c4ccc(Cl)cc4)CC3)ccc21 | i
CC(=O)NCCc1nc2ccccc2n1Cc1cccc(Cl)c1 | i
CCOC(=O)c1cnn2ccc(NC(=O)COc3cccc4c3OC(C)(C)C4)cc12 | i
COc1ccc(CC(=O)Nc2cc(N3CCN(Cc4ccccc4)CC3)ncn2)cc1OC | i
CCCS(=O)(=O)N1CCN=C1SCc1ccc(C(F)(F)F)cc1 | i
Cc1ccc(C)c(OCC(=O)Nc2ccc(S(=O)(=O)N3CCOCC3)cc2)c1 | i
O=C(Nc1nnc(-c2ccsc2)o1)C1(c2ccccc2)CCOCC1 | i
Cc1nc(C(C)(C)C)cc(=O)n1CC(=O)N1CCN(c2ccccc2)CC1 | i
Cc1cc(C)n(-c2nc(CCNC(=O)CN(C)S(C)(=O)=O)cs2)n1 | i
Cc1nnc2n(c1=O)C(CSc1ccc([N+](=O)[O-])cc1)CS2 (configuration not stated) | i
Cc1ccc(S(=O)(=O)N(C)c2c(C)ccc(S(=O)(=O)N3CCCCCC3)c2C)cc1 | i
O=C(Cn1cc(S(=O)(=O)c2ccccc2)c(=O)c2cc3c(cc21)OCO3)Nc1ccccc1 | i
CCOC(=O)C1CCc2sc(NC(=O)c3coc(NC(=O)c4ccccc4)n3)nc21 (configuration not stated) | i
Cc1cc(C)n(CC(=O)Nc2ccc(C(=O)NCc3ccc(C(C)C)cc3)cc2)c(=O)c1C#N | i
Cn1nc(-c2ccccc2)cc1C(=O)Nc1nc2c(s1)COCC2 | i
Cc1cc(-n2nnc(C(=O)N3CCSCC3)c2C)ccc1Br | i
O=C(NCCNc1cc(Nc2ccccn2)ncn1)c1cccnc1 | i
COc1ccc(Cl)c2sc(N(CCN3CCOCC3)C(=O)c3ccn(C)n3)nc12 | i
COc1ccc(S(=O)(=O)N2CCC3(CC2)OCCS3)cc1Cl | i
COc1ccc(C)cc1S(=O)(=O)N1CCCC(c2nnc(COc3ccccc3)o2)C1 (configuration not stated) | i
COc1cccc(CN(c2ccc(C(C)C)cc2)S(=O)(=O)c2cccn3cnnc23)c1 | i
CC1CCN(C(=O)c2cnn3c(-c4ccc(C(C)C)cc4)ccnc23)CC1 | i
COc1cccc(-n2c(C)cn3c4c(=O)n(CCc5ccccc5)c(=O)n(C)c4nc23)c1 | i
O=C(c1ccccc1Cl)N1CCCC(c2nnc(-c3cccs3)o2)C1 (configuration not stated) | i
CCN(CC)C(=O)Oc1ccc2c(=O)c(-c3ccc(OC)c(OC)c3)coc2c1 | i
CCOc1cccc2sc(N(Cc3ccccn3)C(=O)c3ccnn3C)nc12 | i
O=C(c1ccc2c(c1)OCO2)N1CCc2cc(S(=O)(=O)NC3CCCC3)ccc21 | i
CCc1nnc(C2CCN(C(=O)CC(C)(C)C)CC2)s1 | i
CCOC(=O)c1c(Cc2cccc(Cl)c2)[nH]c2c1cc(O)c1ccccc12 | i
N#Cc1cnc(NC(=O)c2ccc(Br)o2)s1 | i
COc1ccc(-c2coc3c4c(ccc3c2=O)OCN(C(C)c2ccccc2)C4)cc1 (configuration not stated) | i
Cc1ccc(S(=O)(=O)N2CCCc3cc(NS(=O)(=O)c4c(C)cc(C)cc4C)ccc32)cc1 | i
Cc1nc(-c2ccccc2Cl)sc1CNC(=O)NCCOc1ccccc1 | i
COC(=O)c1ccc(S(=O)(=O)NCC2(c3ccc(F)cc3)CC2)cc1 | i
CCn1c(=O)c2c(nc3n2CCCN3c2cccc(C)c2C)n(C)c1=O | i
COc1ccc(Br)cc1S(=O)(=O)N1CCCN(S(=O)(=O)c2cc(Br)ccc2OC)CC1 | i
O=C(NCCc1ccccc1)c1ccc2c(=O)nc3c(-c4cccc(C(F)(F)F)c4)n[nH]n3c2c1 | i
Cc1cc(CNC(=O)c2cc(C3CC3)on2)c(C)o1 | i
CCOc1ccccc1-c1noc(-c2nnn(-c3ccc(OC)c(Cl)c3)c2C)n1 | i
O=C(CSc1nc(-c2ccc(Cl)cc2Cl)cs1)N1CCOCC1 | i
Nc1nc(-c2ccc3c(c2)C(=Cc2cc(Br)c(O)c(Br)c2)C(=O)N3)cs1 | i
CCc1cc2c(CN3CCN(c4ccccc4)CC3)cc(=O)oc2cc1O | i
O=C(Cc1ccccc1)Nn1c(SCC(=O)c2ccccc2)nc2ccccc2c1=O | i
O=S(=O)(Nc1ccc(CN2CCN(c3ccccn3)CC2)cc1)c1ccc(F)cc1F | i
CC(C)(Oc1ccc(Cl)cc1)C(=O)Nc1nnc(-c2ccsc2)o1 | i
COCCNC(=O)/C(C#N)=C1\N=C(NC(=O)c2ccccc2)c2ccccc21 | i
COCCCN1C(=O)c2ccc(C(=O)OC(C)C(=O)c3ccc(C)cc3)cc2C1=O (configuration not stated) | i
COc1cccc2sc(N(C)CC(=O)Nc3ccc(Cl)cc3)nc12 | i
CCOc1ccc(-c2nc(Cn3nnc(C(=O)Nc4c(C)cccc4C)c3C)c(C)o2)cc1 | i
O=C(Nc1ccc(OC(F)(F)F)cc1)C1CCN(c2ccc(-c3cccs3)nn2)CC1 | i
Cc1cn2nnc(C(=O)NCc3c(C)noc3C)c2c(=O)[nH]1 | i
O=C(O)CCC(=O)Nc1ccccc1C(F)(F)F | i
CC(C)(C)C1CCc2c(sc3nc(CCC(=O)N4CCN(C(=O)c5ccco5)CC4)[nH]c(=O)c23)C1 (configuration not stated) | i
O=C(C1CC1)N1CCCC(c2nnc(-c3ccccc3F)s2)C1 (configuration not stated) | i
O=C(/C=C/c1ccccc1Cl)N1CCC(Oc2ccc(C(F)(F)F)cn2)CC1 | i
COc1ccc(NC(=O)N2CCN(c3nc4c(C)ccc(Cl)c4s3)CC2)cc1OC | i
CCS(=O)(=O)Nc1ccc(C2=NN(C(C)=O)C(c3ccc(Cl)o3)C2)cc1 (configuration not stated) | i
Cn1c(=O)c(C(=O)N2CCN(C(c3ccccc3)c3ccccc3)CC2)cc2cccnc21 | i
The listing continues.
SMILES | GIRK2 act
O=S(=O)(Cc1cccc(Cl)c1)NCCN1CCN(c2ccccc2F)CC1 | i
CCOc1ccc(CNC(=O)CCn2cnc3c([nH]c4cc(OC)c(OC)cc43)c2=O)cc1OCC | i
Cc1cc(C(=O)N2CCC(Oc3nc4c(Cl)cccc4s3)CC2)no1 | i
COc1ccccc1N1C(=O)S/C(=C\c2ccccc2)C1=O | i

These rows are one share of the data. The share of hits here may be higher or lower than overall.
